# Assay outcomes from PubChem BioAssay.
# Vaccinia Venus: vaccinia inhibition (Venus reporter) | Potency, µM (doses to about 36.5 µM), for the others: top-dose activity change, negative = inhibition, most hits filed as inhibitors | 0.46% of 330,000 active | Vaccinia virus Venus reporter expression, fluorescence; active means well fitted inhibition curve with a large enough effect; inconclusive means small, poorly fitted or top-dose-only effect; inactive means no such curve, though single readings can be large or run the other way; tested in A549 cells; also: nearly all actives have a fitted effect of over 30% in size; inactives centre near -10
# Vaccinia mCherry: inhibitors of vaccinia virus infection (mCherry reporter signal); Vaccinia virus mCherry reporter infection, fluorescence; about a quarter of the inactives have no number; Potency, µM (doses to about 36.5 µM), for the others: top-dose activity change, negative = inhibition, most hits filed as inhibitors; AID 720579; 0.63% of 310,000 active; active = well fitted inhibition curve with a large enough effect; inconclusive = small, poorly fitted or top-dose-only effect; inactive = no such curve, though single readings can be large or run the other way; tested in A549 cells; also: nearly all actives have a fitted effect of over 35% in size; inactives centre near -10
# * = called active by the depositor; i = inactive; ? = inconclusive; & = joins results of further samples; [ ] = another dose, or the depositor's remark. % is scaled to controls: 0 for no effect and ±100 for the full control effect; potency is read from the fitted curve at half-maximal effect.
SMILES,Vaccinia Venus,Vaccinia mCherry
O=C(NCc1ccco1)C1CCCN1S(=O)(=O)c1ccc2ccccc2c1 (configuration not stated),-8.8%,-19.5%
COc1ccccc1NS(=O)(=O)c1c(C(=O)N2CCCC2)c(C)n(C)c1C,-12.5%[7.34 µM],-3.6%[7.34 µM]
CCOC(=O)c1c(C)oc2nc(C)nc(NCc3ccccc3Cl)c12,-2.2%,-7.1%
COc1ccc(NS(=O)(=O)c2ccc3c(c2)n(C)c(=O)c(=O)n3C)cc1Cl,0.0%,-9.2%
COC(=O)c1cc(=O)n(Cc2ccc3c(c2)OCO3)c(=Nc2ccc(F)c(Cl)c2)s1,7.0%,14.5%
O=C(COC(=O)c1cc(Cl)nc(Cl)c1)Nc1ccc(Cl)c(S(=O)(=O)N2CCOCC2)c1,-9.7%,i
Cc1cc(/C=C2\C(=O)NC(=O)N(Cc3ccco3)C2=O)c(C)n1-c1ccc(C(=O)O)cc1,4.4%,i
CCCCC(CC)CNC(=O)c1cccs1 (configuration not stated),-6.2%,-18.4%
CCN=C1S/C(=C\c2ccc(O)c(OCC)c2)C(=O)N1CC,?,?
COc1ccc(CNn2c(-c3ccccc3F)nc3ccccc3c2=O)cc1OC,-6.3%,i
Cn1c(CNC(=O)c2ccccc2F)nnc1SCC(=O)Nc1nnc(C2CC2)s1,0.0%,i
Cc1cc(C)c(S(=O)(=O)N2CCN(C(=O)c3ccc(-n4cncn4)c([N+](=O)[O-])c3)CC2)c(C)c1,-29.9%,-29.9%
Cc1ccccc1NC(=O)c1cn2c(nc3ccccc32)c(C#N)c1C,16.1%[7.34 µM],9.1%[7.34 µM]
Cc1ccc(NC(=O)COC(=O)CNC(=O)C2CCCCC2)cc1S(=O)(=O)N(C)C,-2.1%,i
O=C(Nc1ccc2c(c1)OCCO2)C(C1CC1)N1CCN(c2ccc(C(F)(F)F)cn2)CC1 (configuration not stated),-0.5%,8.4%

# Looked up above:
# Vaccinia Venus, `O=C(NCc1ccco1)C1CCCN1S(=O)(=O)c1ccc2ccccc2c1` (configuration not stated) → -8.8%
# Vaccinia mCherry, `COc1ccccc1NS(=O)(=O)c1c(C(=O)N2CCCC2)c(C)n(C)c1C` → -3.6%[7.34 µM]
# Vaccinia mCherry, `COC(=O)c1cc(=O)n(Cc2ccc3c(c2)OCO3)c(=Nc2ccc(F)c(Cl)c2)s1` → 14.5%
# Vaccinia Venus, `O=C(Nc1ccc2c(c1)OCCO2)C(C1CC1)N1CCN(c2ccc(C(F)(F)F)cn2)CC1` (configuration not stated) → -0.5%
# Vaccinia Venus, `COc1ccc(CNn2c(-c3ccccc3F)nc3ccccc3c2=O)cc1OC` → -6.3%
# Vaccinia Venus, `Cc1ccccc1NC(=O)c1cn2c(nc3ccccc32)c(C#N)c1C` → 16.1%[7.34 µM]

# The listing continues:
SMILES,Vaccinia Venus,Vaccinia mCherry
CNC(=S)SCCOc1ccccc1,1.0%,-19.9%
COc1ccc(OCC(=O)NC2CC(=O)N(c3cccc(OC)c3)C2)cc1 (configuration not stated),-4.6%[7.34 µM],-6.6%[7.34 µM]
CCCCn1nc(C(=O)Nc2ccccc2N2CCCC2)c2ccccc2c1=O,-28.8%,?
Cc1cccc(C)c1NC(=O)c1nc(SC(C)C)ncc1Cl,-3.1%,-10.6%
Cc1ccc(N(C(=O)c2ccccc2Cl)C2=NC(C)CS2)c(C)c1 (configuration not stated),-0.7%,i
O=c1cc(CNc2cc(Cl)ccc2Cl)nc2sccn12,-5.7%,-26.4%
COc1ccc(C(C)NC(=S)NCc2ccc(F)cc2)cc1OC (configuration not stated),-11.0%,-6.3%
CCC1COCCS(=O)(=O)N1Cc1ccc(F)cc1 (configuration not stated),-15.1%&-4.7%,-10.6%
COc1cccc(N2CCN(C(=O)CN(C)S(=O)(=O)c3ccc4c(c3)CCC(=O)N4)CC2)c1,-7.1%,i
CCOC(=O)c1cc(Br)c(=O)n2ccccc12,-3.5%,i
C=CCn1c(SCC(=O)N2CCCCCC2)nc2ccccc2c1=O,-6.1%,10.1%
CN(C)S(=O)(=O)c1ccc2c(c1)N(CC(=O)Nc1ccc(OC(F)(F)F)cc1)C(=O)CS2,-8.8%,-23.4%
O=C(Cc1ccc(-c2ccccc2)cc1)NCCS(=O)(=O)N1CCN(c2ccccc2)CC1,-11.9%,-11.2%
CC(=O)c1cccc(N(CC(=O)N2CCOCC2)S(C)(=O)=O)c1,2.8%,i
O=S(=O)(c1cccs1)N1CCN(c2ccc(F)cc2)CC1,-10.4%,-7.6%
O=C(NCC1CCN(Cc2cccc(Cl)c2)CC1)c1cc2ccc3cccnc3c2[nH]1,-8.4%,0.5%
O=C1Nc2ccc(S(=O)(=O)NCc3ccco3)c3cccc1c23,-6.1%,-5.8%
O=C(N/N=C/c1ccccc1)c1c(O)c2ccccc2[nH]c1=O,-19.0%,-24.6%
COc1ccc(-n2cc(CNC3CCOCC3)c(-c3cccc(F)c3)n2)cc1,-29.1%,?
Cc1ccc(OCc2nc(-c3ccc(C(=O)N4CCN(c5ccccc5F)CC4)cc3)oc2C)cc1,-22.4%,-28.2%
O=C(O)C1=C[C@@H](c2ccc3c(c2)OCO3)C[C@@H](OCCCCO)O1,-10.8%,i
Cc1nnc(SCC(=O)N2CC(=O)Nc3ccccc32)s1,-11.0%,-14.8%
Cc1c2c(c(C)n1C)C(C(=O)NC1CCCCC1)N(Cc1ccccc1)C2=O (configuration not stated),-6.0%,-8.1%
Cn1cc(Br)c(C(=O)Nc2sc3c(c2C#N)CCC3)n1,-7.7%,-12.8%
COc1ccc(C(=O)/C=C/Nc2ccc(S(=O)(=O)Nc3nc(C)cc(C)n3)cc2)c(OC)c1,4.1%,-20.7%
O=[N+]([O-])c1cc(-c2nc(-c3ccccc3)no2)ccc1NCc1cccnc1,-6.8%,-12.2%
CCC(Nc1ccc(OC)cc1)C(=O)N/N=C/c1ccc([N+](=O)[O-])cc1 (configuration not stated),-5.5%,-13.5%
CCN(c1ccccc1)S(=O)(=O)c1ccc(C(=O)N2CCN(c3ccccc3F)CC2)cc1,-28.4%,?
CC(Oc1ccc(Cl)cc1)c1ccnn1S(C)(=O)=O (configuration not stated),-14.8%,i
COc1ccc2c(CN3CCOCC3)cc(=O)oc2c1,3.0%,29.4%

# Full records as entered above.
# O=S(=O)(c1cccs1)N1CCN(c2ccc(F)cc2)CC1 as listed: Vaccinia Venus: -10.4%; Vaccinia mCherry: -7.6%
# COc1ccc2c(CN3CCOCC3)cc(=O)oc2c1 as listed: Vaccinia Venus: 3.0%; Vaccinia mCherry: 29.4%
# O=C(O)C1=C[C@@H](c2ccc3c(c2)OCO3)C[C@@H](OCCCCO)O1 as listed: Vaccinia Venus: -10.8%; Vaccinia mCherry: i

# Additional structures follow:
SMILES,Vaccinia Venus,Vaccinia mCherry
CCc1ccc2c(c1)C(NC(C)=O)C(=O)N2CC (configuration not stated),-12.7%,-14.4%
CCOC(=O)C1=C(C)OC(N)=C(C(=O)OCC)[C@@]12C(=O)N(CC(N)=O)c1ccccc12,-9.3%,i
O=C(NCc1ccccc1)Nc1cc(Cl)ccc1Cl,-1.1%,i
CCn1c2ccccc2c2cc(NC(=O)C(=O)N3CCOCC3)ccc21,-8.6%,-24.4%
O=C1CSC(=S)N1N=Cc1ccc(OCc2ccccc2)cc1,-9.2%,i
O=C(NCC1CCCO1)C1c2ccccc2C(=O)N1C1CCCCCCC1 (configuration not stated),-8.7%,-14.3%
O=C(N/N=C/c1ccco1)c1cc(-c2ccc(Br)s2)[nH]n1,-7.5%,-9.9%
O=C(c1ccccc1F)c1cn(Cc2ccc(F)cc2)c2ccccc12,-27.2%,?
Nc1nc(N)c(N=O)c(Nc2ccc(Cl)c(Cl)c2)n1,-15.8%,-11.0%
CN(Cc1cnn(C)c1)C(=O)C1CCC(=O)N(C2CCCCCC2)C1 (configuration not stated),1.7%,-6.8%
CC(C)COC(=O)N(C)C[C@@H]1OCc2cnnn2CCCC(=O)N([C@@H](C)CO)C[C@@H]1C,-10.6%,-25.3%
C[C@]12CC[C@H](OC(=O)CCC(=O)O)CC1=CCC1C2CC[C@@]2(C)C1CC[C@@H]2OC(=O)CCC(=O)O (some centres not stated),-8.5%,-13.2%
COc1cc(OC)c(NC(=O)N2CCc3cc(OC)c(OC)cc3C2CC(=O)O)cc1Cl (configuration not stated),?,-19.3%
CN(C(=O)c1ccc(N2CCOCC2)c([N+](=O)[O-])c1)C1CCCCC1,-0.6%,-15.3%
CCOc1cc(S(=O)(=O)N2CCCCC2)ccc1Cl,-7.7%,-23.3%
Cc1[nH]c2ccccc2c1C(=O)CSc1ccc(Cl)cc1,-11.1%,-11.6%
Nc1cc(Cl)ccc1N1CCCC1,-7.7%,i
CNS(=O)(=O)c1cc(Cl)ccc1Sc1ccccc1C(=O)O,-5.1%,-9.8%
CCN1CCN(c2ccc(NC(=O)c3cccc(N4CCCC4=O)c3)cc2)CC1,7.2%,-8.0%
COc1ccc(-c2csc(N3C(=O)CNC3=S)n2)cc1,-9.3%,-6.5%
Cc1cccc(CC(=O)Nc2ccc(C(=O)N3CCOCC3)cc2)c1,-15.6%,i
OC(CNC1CCCCC1)COCCOc1ccc(Br)cc1 (configuration not stated),-26.1%,-7.0%
COc1ccc(C(C)(C)C)cc1S(=O)(=O)N1CCC(C(N)=O)CC1,-5.1%,-21.9%
COC(=O)c1ccccc1-c1cc(C)cc2c1OC(CNC(=O)C1CCCO1)C2 (configuration not stated),-18.0%,-20.4%
O=C(Cc1cc(=O)[nH]c(=O)[nH]1)N1CCN(C(=O)c2ccco2)CC1,-7.3%,?
Cc1ccc(Nc2nc(-c3c(C)nc4ccccn34)cs2)cc1,10µM*,?
C/C(=N\NC(=O)Cn1nc(C)c([N+](=O)[O-])c1C)c1ccc(O)cc1,-11.9%,-15.6%
CCc1ccc(NC(=O)C2CCN(c3cc(C)nc4c(-c5ccc(Cl)cc5)c(C)nn34)CC2)cc1,-4.0%,0.0%
COc1cc(NC(=O)c2nnn(CC(=O)Nc3ccccc3)c2N)cc(OC)c1,-27.2%,-16.2%
CCn1c2ccccc2c2nnc(SCC(=O)NC3CCS(=O)(=O)C3)nc21 (configuration not stated),-3.9%,-13.3%
CC(O)(c1cccc(F)c1)c1nc(-c2cc3ccccc3o2)cs1 (configuration not stated),-26.9%,?
C#CCNC(=O)C[C@@H]1C[C@@]2(C(=O)OCC)CCCC=C2N(Cc2ccc(Cl)cc2Cl)C1=O,-3.3%,-3.8%
CC(=O)c1ccc(N2CCN(C(=O)COc3ccc4ccccc4c3)CC2)cc1,-9.9%,-1.8%
CCOC(=O)c1ccc(NC(=O)C2CCCN(c3cnccn3)C2)cc1 (configuration not stated),-6.2%,0.3%
COc1ccccc1C(=O)NCCCNc1nc2cc(C)cc(C)c2cc1C#N,-28.1%,-3.1%
CC(=O)Nc1ccc(NC(=O)C/C(C)=N/NC(=O)C(=O)N2CCCC2)cc1,-12.8%,-11.4%
COc1ccc(NC(=O)c2ccccc2[N+](=O)[O-])cc1OC,-7.9%,-7.4%
O=C(CSC1=Nc2ccccc2N=C(c2ccc(F)cc2)C1)Nc1cccc(C(F)(F)F)c1,-8.0%,-6.9%
O=C(CCS(=O)(=O)c1cccc2nsnc12)N1CCN(c2ccccc2F)CC1,-8.2%,-14.1%
Cn1nc(-c2ccccc2)c(-c2ccccc2)c(C(=O)Nc2ccc(S(N)(=O)=O)cc2)c1=O,-10.4%,-9.4%
COC(=O)C1=C(C)C(c2ccc(OC)cc2)NC(=O)N1 (configuration not stated),-15.1%,i
Cc1ccc(-c2csc(NCCn3c(-c4ccncc4)nc4cc(C(F)(F)F)ccc43)n2)cc1,?,?
COc1ccccc1N1CCN(S(=O)(=O)c2ccc(-c3cnc(C4CC4)o3)cc2)CC1,-15.7%,-22.5%
O=C(NCc1nnc(SCC(=O)N2CCN(c3ccccc3)CC2)o1)c1c(F)cccc1F,-14.4%,i
CN1CC(C(=O)c2cccc(C(F)(F)F)c2)C(c2ccc(Cl)cc2)C1 (configuration not stated),-6.6%,i
N#C/C(=C\c1ccc(O)c(O)c1)C(=O)NCCc1ccccc1,-13.1%&-16.0%,5.7%
COC(=O)C1CCN(C(=O)c2ccc(OC3CCN(Cc4ccccn4)CC3)cc2)CC1,-3.9%,0.6%
C/C(=N/NC(=O)CNC(=O)COc1cccc(C)c1)c1ccco1,-12.1%,i
CCC(=O)NC(=S)Nc1ccccc1OC,-1.7%,-10.5%
CC(=O)Nc1ccc(S(=O)(=O)N2Cc3cnnn3-c3ccccc3C2C#N)cc1 (configuration not stated),2.3%,-8.8%
c1ccc(OCCCn2nnc(-c3cccnc3)n2)cc1,-4.5%,-4.7%
Cc1cc(C)c(OCCCCN2CCC(C)CC2)c(Br)c1,-8.2%,-18.6%
CCC(CC)NC1CCCCC1OC (configuration not stated),-6.7%,-13.5%
O=C(COC(=O)c1cnccn1)c1ccc([N+](=O)[O-])cc1,14.2%,1.4%
O=c1[nH]c(-c2ccccc2)ncc1OCc1ccccc1,3.0%,-5.9%
Cc1ccc(NC(=O)COC(=O)CCC(=O)c2cccs2)cc1C,-0.4%,1.9%
CC(=O)C1=C(O)C(=O)N(CCN2CCOCC2)C1c1ccccc1 (configuration not stated),-14.4%,i
Cc1cc(NS(=O)(=O)c2ccc(NC(=O)c3ccc(Cl)cc3Cl)cc2)no1,-7.8%,-11.2%
COc1ccc(-c2[nH]ncc2C(=O)NCc2ccc(F)cc2)cc1,-19.5%,-14.6%
COc1ccccc1NC(=O)CSc1nnc(NC(=O)c2ccco2)s1,-19.5%,-4.6%
C[C@H](O)[C@@H]1CN2CCc3c([nH]c4ccccc34)[C@@H]2C[C@@H]1N(C)C(=O)Nc1cccc2ccccc12,-12.9%,3.7%
O=C(CN(CC1CCCO1)C(=O)CNS(=O)(=O)c1ccc(Cl)cc1)NC1CCCCC1 (configuration not stated),3.0%,-4.8%

# Not a hit list. Share with any hit: about 0.82%.
